Screening results (PubChem BioAssay)
NPYLR7 ag: mosquito NPYLR7 agonism; activation, % at 10 µM; HEK293T NPYLR7/Galpha15, GCaMP6s calcium fluorescence; hit rate 0.15% among 270,000; in the data active = activation above about 40%;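 note: 0% = vehicle and 100% = reference agonist at the receptor; some compounds past the cut are filed as inactive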
NPYLR7 ag max-min: second read-out of NPYLR7 ag, no call of its own (marks repeat the call); activation, %; measured here: Max-Min RFU normalised activation; some inactives read as strong as hits;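 span of the calcium signal over five minutes; 0% = vehicle and 100% = native peptide agonist; compound fluorescence can raise it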
An asterisk follows results filed as active. Not all compounds are listed (hit frequency here may not be typical).

smiles | NPYLR7 ag | NPYLR7 ag max-min
COc1cccc(-c2nc3ccc(-c4ccccc4)cn3c2CCC(=O)O)c1 | 26 | 9
CC(C)(C)NC(=O)N1CCn2cccc2C1c1ccc(F)c(F)c1 (stereo not given) | 7 | 5
O[C@@H]1CN(Cc2cn[nH]c2-c2ccccc2)CC[C@H]1c1ccc(F)cc1 | 7 | 4
CCN(Cc1ccc(F)c(F)c1)C(=O)Cc1[nH]nc2ccccc12 | 6 | 4
CC(C)(CCl)C(=O)N1CCN(c2nc(C3CCOCC3)nc3c2cnn3-c2ccccc2)CC1 | -10 | 5
CCOC(=O)c1[nH]c(C)c(C(=O)C(C)N(CCOC)C(=O)c2cccc(C(F)(F)F)c2)c1C (stereo not given) | -2 | 10
COc1ccc(Nc2ncc3c(n2)CN(C(=O)NCCc2ccc(OC)c(OC)c2)C3)cc1 | -5 | -9
CCOC(=O)c1c(NC(=O)c2cc(Cl)cc(Cl)c2)sc2c1CCCC2 | -5 | -10
O=C(N[C@H]1CN[C@H](C(=O)NCCCn2ccnc2)C1)c1cccc(Cl)c1 | -5 | -6
Cc1cc(NC(=O)c2cccc(S(=O)(=O)C(C)C)c2)no1 | -4 | -12
C[N+]1(c2cccc(C(F)(F)F)c2)CCC(N)=N1 (stereo not given) | 8 | 7
COc1ccc(-c2csc(=Nc3ccccc3OC)n2CCc2cccc(C(F)(F)F)c2)cc1 | -5 | -11
Cc1oc(-c2cccs2)nc1C(=O)NC1CCN(Cc2ccccc2)C1=O (stereo not given) | 9 | 5
Cc1c(C(=O)N2CCN(c3ncccn3)CC2)oc2c(Cl)cccc12 | 2 | 3
CCC1CN(C(=O)CCc2ccccc2OC)Cc2ccc(Cl)cc2O1 (stereo not given) | 23 | 9
CCN(CC(=O)N1CCc2sccc2C1c1ccc(Cl)cc1Cl)S(=O)(=O)c1cccc(C(F)(F)F)c1 (stereo not given) | 7 | -2
C#CCOCC(O)CN(Cc1ccccc1F)Cc1c(-c2ccccc2)noc1N(CC)CC (stereo not given) | 8 | 12
Cc1ccc(NC(=O)c2cc3n(n2)CCN(Cc2c(Cl)cccc2Cl)C3=O)cc1 | 1 | 10
COc1c2ccoc2cc2oc(C)cc(=O)c12 | -4 | -8
C=CCNc1ncnc2c1cnn2-c1ccccc1 | 6 | 7

Complete entries, quoted from the list. Screens in order: NPYLR7 ag | NPYLR7 ag max-min
`CCOC(=O)c1[nH]c(C)c(C(=O)C(C)N(CCOC)C(=O)c2cccc(C(F)(F)F)c2)c1C` (stereo not given) is listed with -2 | 10
`O=C(N[C@H]1CN[C@H](C(=O)NCCCn2ccnc2)C1)c1cccc(Cl)c1` is listed with -5 | -6
`Cc1ccc(NC(=O)c2cc3n(n2)CCN(Cc2c(Cl)cccc2Cl)C3=O)cc1` is listed with 1 | 10

Three entries drawn at random from those above, as already listed:
smiles | NPYLR7 ag | NPYLR7 ag max-min
COc1ccc(-c2csc(=Nc3ccccc3OC)n2CCc2cccc(C(F)(F)F)c2)cc1 | -5 | -11
C[N+]1(c2cccc(C(F)(F)F)c2)CCC(N)=N1 (stereo not given) | 8 | 7
C#CCOCC(O)CN(Cc1ccccc1F)Cc1c(-c2ccccc2)noc1N(CC)CC (stereo not given) | 8 | 12

Further results.
smiles | NPYLR7 ag | NPYLR7 ag max-min
O=C(Nc1ccccc1C(=O)NC1CC1)c1cnc(-c2ccccc2)s1 | 23 | 16
COc1ccccc1C(=O)N1CCC(C(NC(=O)c2ccc3c(c2)OCO3)C(=O)NC2CC2)CC1 (stereo not given) | -6 | 3
O=C(c1cc2n(n1)CCN(Cc1c(F)cccc1Cl)C2=O)N1CCc2ccccc2C1 | 5 | -2
Cc1ccnc(NCCNC2CCN(C(=O)C3CCCO3)CC2)c1 (stereo not given) | 2 | 11
CN(CCc1ccccn1)C(=O)CCc1nnc(CCCc2ccccc2)o1 | 3 | 1
Cc1ccc(C2(O)CCN(C(=O)C3=Cc4ccccc4OC=C3)CC2)nc1 | 7 | 7
COc1ccc2c(=O)c3c(=O)n(-c4ccccc4)c(-c4ccccc4)nc3oc2c1 | 3 | 0
COc1ccc(Oc2cc(N3CCSCC3)ncn2)cc1 | 4 | 6
CCCN(C)c1cc(COC)nc(SCc2ccc(C(=O)O)cc2)n1 | 7 | 16
O=C(NCc1nc2ccccc2n1Cc1ccc(Br)cc1)c1ccco1 | -8 | -8
C=CCn1c(SCC(=O)N2CCOCC2)nc(O)cc1=O | 8 | 6
CSc1nc2nc3c(cn2n1)C(=O)CC(C)(C)C3 | -3 | -2
Nc1nnc(SCC(=O)C23CC4CC(CC(C4)C2)C3)n1C1CC1 | -1 | -5
CCOC(=O)CNC(=O)N(CC(=O)N(Cc1ccc2c(c1)OCO2)Cc1cccs1)CC(C)C | 16 | 19
Nc1c(Cl)ncnc1NCCCn1ccnc1 | -1 | -3
CC(C)c1nc(C2CCCN(C(=O)c3cc(C(C)C)n(C(C)(C)C)n3)C2)no1 (stereo not given) | 3 | 1
CC(=O)NCCn1ccnc1-c1ccc(Oc2ncccn2)cc1 | 14 | 9
CC1CN(C(=O)CCCSc2nnc(Cc3ccccc3)n2-c2ccccc2)CCN1C(=O)c1ccc(Br)cc1 (stereo not given) | 4 | 4
CCC(=O)N(c1nnc(SCC(=O)Nc2oc(C)c3c(C)n[nH]c(=O)c23)s1)C1CC1 | 5 | -1
COc1ccc(-c2cccc(-c3ccc(NC(=O)COCc4ccccc4)cc3)n2)cc1 | 0 | 4
O=C(NC1CCCN(CCCc2ccccc2)C1)c1ccc(N2CCOCC2)cc1 (stereo not given) | -3 | -4
COCCNC(=O)c1cccc(Nc2c(Oc3cccc(OC)c3)cnn(-c3ccccc3)c2=O)c1 | 4 | 9
O=C1NC2(CCN(Cc3cccc(F)c3F)CC2)Nc2cc(Cl)ccc21 | 8 | 27
Cc1ccccc1Cn1cc(C(=O)NC(Cn2ccnc2)c2ccccc2)nn1 (stereo not given) | -2 | -5
CCCC(C)Nc1ncnc2sc3c(c12)CCC(C)C3 (stereo not given) | -12 | -16
COc1cccc(N2CCN(C(=O)c3cccc(Cl)c3)C(C)C2=O)c1 (stereo not given) | 12 | 11
O=C(NC1CCN(c2ccccc2C(=O)NCc2ccc(F)cc2)CC1)c1ccc(C(F)(F)F)cc1 | -11 | -11
CCC(C)NC(=O)CSc1nnc(NCc2ccc(OC)cc2)s1 (stereo not given) | 5 | 11
COC(=O)N1CCC(Nc2nc(C)nc3sc4c(c23)CCC4)CC1 | -20 | -22
COC(=O)c1c(NC(=O)Cn2cnc([N+](=O)[O-])n2)sc2c1CCCC2 | -4 | -10
Cc1[nH]nc(C(=O)N2CCCN(Cc3ccccc3)CC2)c1Br | 16 | 11
Cc1cc(C(=O)COC(=O)Cn2ccc(=O)[nH]c2=O)c(C)n1Cc1ccc2c(c1)OCO2 | -6 | 10
Cc1cccc(-c2nc(C)cc(N3CCN(S(=O)(=O)c4ccc(Br)cc4)CC3)n2)c1 | -4 | 2
COCCN(Cc1cc(NC(=O)C2CC2)ccc1N(C)C)S(=O)(=O)c1cccc(Cl)c1 | -6 | -6
Cc1cc(F)ccc1S(=O)(=O)NC1CCC(C(F)(F)F)CC1 (stereo not given) | -2 | -2
CC(=O)c1ccc(OC(=O)COc2ccc(Oc3ccc(C)cc3)cc2)cc1 | 3 | 1
O=C(NCc1ccc2c(c1)OCO2)c1ccccc1N1CCC(NC(=O)C2CC2)CC1 | -11 | -11
COc1ccc(C(=O)N(CC2CCN(Cc3ccccc3C)CC2)CC2CCCO2)cc1 (stereo not given) | 20 | 10
Cc1ccc2ncc(C(=O)NCC(C)C)c(=O)n2c1 | 1 | -1
CC(=O)N1CCN(C(=O)c2coc(CN(Cc3cccc(Oc4ccccc4)c3)Cc3ccc4c(c3)OCO4)n2)CC1 | 16 | 23

In the list so far, three contain two or more sulfur atoms.
smiles | NPYLR7 ag | NPYLR7 ag max-min
CCN(CC(=O)N1CCc2sccc2C1c1ccc(Cl)cc1Cl)S(=O)(=O)c1cccc(C(F)(F)F)c1 (stereo not given) | 7 | -2
CCC(=O)N(c1nnc(SCC(=O)Nc2oc(C)c3c(C)n[nH]c(=O)c23)s1)C1CC1 | 5 | -1
CCC(C)NC(=O)CSc1nnc(NCc2ccc(OC)cc2)s1 (stereo not given) | 5 | 11

Next part.
smiles | NPYLR7 ag | NPYLR7 ag max-min
Cc1cc(OCC(=O)NNC(=O)COc2ccc([N+](=O)[O-])cc2)cc(C)c1Cl | -1 | -3
CC(C)Cc1nnc(NC(=O)Nc2ccc(Br)cc2)s1 | -2 | -5
CN(C)Cc1ccc2ccc3cccc4ccc1c2c34 | 1 | 7
Cc1cc(C2CCC2)nc(N2CCNC(=O)C2)n1 | -10 | -13
O=C(CCc1ccc(Cl)cc1Cl)N1CCCC(c2ncn[nH]2)C1 (stereo not given) | 5 | 4
Cc1cc(C(=O)N2CCC(n3nc(-c4ccccc4)cc3-c3ccccc3)CC2)cc(Cl)n1 | 20 | 11
O=S(=O)(NCCc1csc2nc(-c3cccs3)nn12)c1ccccc1F | 12 | 8
CC(C)C(=O)N1CCCC1(C)C(=O)Nc1cccc(Oc2ccccc2)c1 (stereo not given) | -1 | -3
CCN1CCC(C(=O)NC(c2ccc(F)cc2)c2ncccc2C)CC1 (stereo not given) | -9 | -3
Cc1nc(C)c(Cc2ccc(F)cc2)c(N2CCN(C(=O)c3ccco3)CC2)n1 | 16 | 25
CC(O)(CNC(=O)NC1CCCCC1n1cccn1)c1cccs1 (stereo not given) | 4 | -13
CCn1c(C)nc2cc(O)ccc21 | -1 | -6
CN1CCN2CCN(CCOCc3ccccc3)CC2C1=O (stereo not given) | -4 | -6
CN(CC1CCCO1)C(=O)c1cc(CN2CCC(Cc3ccccc3)CC2)on1 (stereo not given) | -2 | -5
CCC(C)N(Cc1cccc(OS(C)(=O)=O)c1)C(=O)c1ccccc1F (stereo not given) | 11 | 5
COc1cccc(CCNC(=O)C(c2ccccc2)N2CCCC2)c1OC (stereo not given) | -3 | -6
Cc1ccc(-n2c(=O)[nH]c3c(C(N)=O)nc(-c4ccccc4)nc32)cc1C | -6 | -8
CC(C)(CNC(=O)c1ccc2nc(Cl)ccc2c1)S(C)(=O)=O | -8 | -7
CC(NS(=O)(=O)C1CC1)C(C)(C)CN(C)C (stereo not given) | 0 | -5
O=C(CSc1nnnn1C1CC1)N1N=C(c2cccs2)CC1c1cccs1 (stereo not given) | -1 | 3
COc1ccc(NC(=O)N(CC(=O)N(CCc2c[nH]c3ccccc23)Cc2ccc(C)cc2)C2CC2)c(OC)c1 | 0 | 9
COC(=O)C1=C(C(=O)OC)C2=S(SC(c3ccc(OC)cc3)=C2)S1 (stereo not given) | 4 | 2
CN(C)c1ccc(C(=O)Nc2ccc3nc(N4CCOCC4)[nH]c3c2)cc1 | -1 | -2
O=C1C(=O)c2c(C(=O)c3ccccc3)coc2-c2ccccc21 | 3 | -2
COc1ccc(S(=O)(=O)N(C)CCc2ccccc2)cc1N1CCN(C(=O)C2CCCCC2)CC1 | 13 | 13
Cc1ccc(-c2csc3nc[nH]c(=S)c23)cc1C | 1 | -1
CCOC(=O)C1(CCc2ccccc2)CCCN(C(=O)c2n[nH]c(=O)c3ccccc23)C1 (stereo not given) | 5 | 2
COC1CN(C(=O)Cc2cccs2)CCC(=O)N(C)c2ccccc21 (stereo not given) | 4 | 16
CCc1cccc(C)c1NCc1cn2c(C)cc(C)nc2n1 | 11 | 8
CC(C(=O)N1CCN(C)C2(CCN(C)CC2)C1)n1cc(Cl)cn1 (stereo not given) | 4 | 5
CN(CCc1ccccc1)C1(C(=O)NCc2ncc[nH]2)Cc2ccccc2C1 | 0 | -3
O=C1NC(Nc2ncc(Cl)cn2)(C(F)(F)F)C(=O)N1CCC1C=NC2C=CC=CC12 (stereo not given) | 1 | 38
COc1ccc(-n2cc(CN(C)Cc3nonc3C)c(-c3cccc(F)c3)n2)cc1 | 9 | -8
COc1ccccc1NC(=O)Nc1ccnn1C1CCN(C(=O)C2CCCO2)CC1 (stereo not given) | 7 | -1
COCCN1CCC(CNC(=O)c2ncccc2O)CC1 | 9 | 7
C#CCN1CCCCC1C(=O)NCC1CCCCC1 (stereo not given) | 13 | 6
COc1cccc(CC2CN(Cc3cc4c(cc3C)OCO4)CCO2)c1 (stereo not given) | 19 | 9
CC(NC(=O)c1cccc(N(C)C)c1)C(=O)N1CCSCC1 (stereo not given) | -7 | -7
O=C(/C=C/c1ccc([N+](=O)[O-])cc1)Nn1cnc2c(cnn2-c2ccccc2)c1=O | 10 | 8
CC(C)CC(=O)N1CCSC12CCN(C(=O)c1ccccc1F)CC2 | 10 | 23
CN(Cc1cccc2cccnc12)C(=O)c1ccc2nc(C3CC3)oc2c1 | 3 | 3
CC(C)COCC(O)CN(Cc1ccccc1Cl)C(C)C (stereo not given) | -3 | 10
CNc1ncccc1C(=O)N1CCOC(CC2CCCCC2)C1 (stereo not given) | 5 | 2
Cc1nc(CNC(=O)c2cccc(Cn3cccn3)c2)cs1 | -1 | 1
C=CCCC(=O)N1CCC(CCc2ccc(-c3ccccc3)cc2)CC1 | 4 | 0
Cc1ccc(/C=C/S(=O)(=O)NCCCn2nc(-c3ccccc3)ccc2=O)cc1 | -2 | -2
CC1CC(C)CN(C(=O)CSc2nnc(-c3ccncc3)n2C)C1 (stereo not given) | 9 | 11
Cc1ccc2c(c1)CCN1C(=O)CN(C(=O)c3cccc(C)c3C)CC21 (stereo not given) | 12 | 18
CCCCCCCCNC(=O)c1ccc(Br)o1 | 19 | 9
O[C@H]1C=C2CO[C@@H](c3ccccn3)C[C@H]2C1 | 6 | 19
CC(C)(C)NS(=O)(=O)c1ccc(C2=NC(=Cc3ccsc3)C(=O)O2)cc1 | 15 | 10
CC1CN(C(=O)CN2CCc3sccc3C2c2cccc(F)c2)CCN1S(=O)(=O)c1ccc(Cl)cc1 (stereo not given) | -4 | -10
COc1cc(OC)nc(C(NC(=O)C2CCN(Cc3ccc(N(C)C)cc3)CC2)c2ccc(F)cc2)n1 (stereo not given) | 0 | -7
COc1ccc(C)cc1N1C(=O)CSC1c1cccc(NC(=O)Nc2ccc(Cl)c(Cl)c2)c1 (stereo not given) | 20 | 18
COc1ccc(C(=O)CSc2ccc(-c3ccc(C)cc3)nn2)cc1 | 2 | 2
